High-throughput results: PubChem, National Center for Advancing Translational Sciences (NCATS)
LASV entry inh: inhibitors of Lassa virus binding or cell entry. Lassa virus pseudotype entry inhibition, cell reporter; control for the full effect not named in the record. Potency, µM (titrated, usually from 37.9 µM), inactives show top-dose activity change, negative = inhibition, most hits filed as inhibitors. 300,000 compounds, 1.2% hits; active means well fitted inhibition curve with a large enough effect; inconclusive means small, poorly fitted or top-dose-only effect, or effect the other way; inactive means flat fitted curve, though single readings scatter; tested in HEK293 cells; note: % is set by controls: 0 for no effect and ±100 for the full control effect; nearly all actives have a fitted effect of over 50% in size; luciferase read-out
2A StopGo: FMDV 2A StopGo reporter, luciferase signal; Potency, µM (top dose mostly 57.9 µM), for inactives: at the highest dose signal change, negative = less light; 410,000 compounds, 1.2% hits; AID 1159524; human cells with a luciferase reporter of 2A StopGo recoding; control for the full effect not named in the record; active = well fitted falling curve with a large enough effect; inconclusive = small, poorly fitted or top-dose-only effect; inactive = no such curve, though single readings can be large or run the other way; tested in HEK293T cells; note: % is set by controls: 0 for no effect and ±100 for the full control effect; nearly all actives have a fitted effect of over 45% in size; luciferase light after 4 h
NS1 function inh: inhibitors of influenza NS1 protein function | 270,000 compounds, 0.4% hits | S. cerevisiae slowed by influenza A NS1, growth recovery by OD600 | Potency, µM (highest dose often 46.1 µM), without a hit: at the top dose activity, positive = more growth; active means well fitted rising curve with a large enough effect; inconclusive means small, poorly fitted or top-dose-only effect; inactive means no such curve, though single readings can be large or run the other way; note: nearly all actives have a fitted effect of over 50% in size
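OD600 was taken as the measure of yeast growth restored by compound in an NS1-expressing S. cerevisiae strain. Cells had been washed out of glucose medium and diluted 1:100 into galactose -URA medium, pH 6.0.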
Cruzain noTriton: blocks cruzain activity in detergent-free assay. P25779. 200,000 compounds, 2.3% hits. purified cruzain, Z-FR-AMC fluorescence, no detergent. AID 1476. Potency, µM, inactives show max response, negative = inhibition, usual class: inhibitors;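 note: plate controls were enzyme without inhibitor for no effect and buffer without enzyme for full effect; nearly all actives have a fitted effect of over 40% in size; top concentration of the series not given in the record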
Target sequence (P25779 123-467 limits assumed): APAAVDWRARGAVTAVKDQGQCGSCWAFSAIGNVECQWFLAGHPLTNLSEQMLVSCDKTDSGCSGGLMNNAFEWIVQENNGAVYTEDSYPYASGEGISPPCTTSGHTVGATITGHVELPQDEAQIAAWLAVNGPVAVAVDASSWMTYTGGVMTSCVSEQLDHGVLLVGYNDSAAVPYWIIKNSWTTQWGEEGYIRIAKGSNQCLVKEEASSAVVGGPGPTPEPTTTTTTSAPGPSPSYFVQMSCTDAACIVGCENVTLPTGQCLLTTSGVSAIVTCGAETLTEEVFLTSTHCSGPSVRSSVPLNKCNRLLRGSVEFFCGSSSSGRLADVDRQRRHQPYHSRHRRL
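Detergent-free condition (0.00005% Triton X-100) in acetate buffer pH 5.5 with DTT. 1.5 nM enzyme and compound were pre-mixed 15 min, then 2 uM Z-FR-AMC substrate added; reaction progress from fluorescence change between first and third reads (60 s).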
Marburg entry inh: inhibitors of Marburg virus binding or cell entry; 300,000 compounds, 1.8% hits; Potency, µM (titrated, usually from 37.8 µM), for the others: at the highest dose activity change, negative = inhibition, most hits filed as inhibitors; Marburg virus pseudotyped entry inhibition, cell reporter; control for the full effect not named in the record; about a third of the inactives were read at about 46 µM; AID 540276; active = well fitted inhibition curve with a large enough effect; inconclusive = small, poorly fitted or top-dose-only effect, or effect the other way; inactive = flat fitted curve, though single readings scatter; tested in HEK293 cells; about a fifth of its hits are not listed in these tables; note: % is set by controls: 0 for no effect and ±100 for the full control effect; luciferase read-out
RE007 growth inh: less growth of the S. pombe RE007 Vpr strain | S. pombe RE007 Vpr strain, BacTiter-Glo ATP luminescence, 24 h; control for the full effect not named in the record | Potency, µM (titrated, usually from 92.2 µM), for inactives: top-dose activity change, negative = less growth | 360,000 compounds, 0.21% hits | AID 651644; active = well fitted falling curve with a large enough effect; inconclusive = small, poorly fitted or top-dose-only effect; inactive = no such curve, though single readings can be large or run the other way;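 note: % is set by controls: 0 for no effect and ±100 for the full control effect; nearly all actives have a fitted effect of over 50% in size; the assay follows cell death caused by Vpr and the record does not say whether a fall means rescue or toxicity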
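Fission yeast RE007 carrying one integrated HIV-1 vpr copy, seeded at OD 0.01 in PMG+AL medium with 23 nL pinned compound. Grown 24 h at 30 degrees; viability read by BacTiter-Glo luminescence after 5 min.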
SARS PLpro yeast: SARS-CoV PLP inhibition in yeast; S. cerevisiae expressing SARS-CoV PLpro, growth rescue; control for the full effect not named in the record; Potency, µM (titrated, usually from 32.9 µM), without a hit: top-dose activity, positive = growth rescue; 330,000 compounds, 0.19% hits; active means well fitted rising curve with a large enough effect; inconclusive means small, poorly fitted or top-dose-only effect; inactive means no such curve, though single readings can be large or run the other way; note: 0% is about no effect; nearly all actives have a fitted effect of over 55% in size; growth read by luminescence after 48 h
Cruzain Triton: cruzain (T. cruzi) inhibition with detergent; Potency, µM, inactives show max response, negative = inhibition, usual class: inhibitors; AID 1478; purified cruzain, Z-FR-AMC fluorescence, 0.01% Triton; P25779; 200,000 compounds, 0.43% hits;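 note: plate controls were neutral wells for no effect and buffer without enzyme for full effect; nearly all actives have a fitted effect of over 40% in size; top concentration of the series not given in the record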
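Purified cruzain (1.5 nM final) was preincubated with compounds for 15 min at room temperature in 100 mM sodium acetate pH 5.5, 5 mM DTT, 0.01% Triton X-100. Reaction started with 2 uM Z-FR-AMC; AMC fluorescence change over 60 s gave activity.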
Active calls of the source: *; ? = inconclusive; · = not tested or not shown; & = joins results of further samples; [ ] = remark or other dose. Unless noted, calls come from the whole dose curve; as a rule, active = well fitted curve in the direction sought with a large enough effect; inconclusive = small, poorly fitted or top-dose-only effect, or another doubt; inactive = no such curve, though single readings can be large; an effect the other way counts as inactive or inconclusive. Potency is the fitted concentration of half-maximal effect.

nr	smiles	LASV entry inh	2A StopGo	NS1 function inh	Cruzain noTriton
1	CCCCN(C(=O)CSc1nnc(-c2ccccc2)n1C)c1c(N)n(Cc2ccccc2)c(=O)[nH]c1=O	0%	-19%	15%	?
2	COc1ccc(OC)c(NC(=O)CCNS(=O)(=O)c2cccs2)c1	7%	-12%	4%	-5%
3	O=[N+]([O-])c1cccc(CNC2CCCCCC2)c1	-10%	-19%	6%	·
4	COc1ccc2sc3ccccc3c(=O)c2c1OC	?	38%[activator]	-77%	-4%
5	Cc1cccc(C)c1OCCCCc1c(C)n[nH]c1C	0%	?	-48%	3%
6	CCN1CCc2c(sc(NC(=O)c3ccc(S(=O)(=O)N(C)c4ccccc4)cc3)c2C(=O)NC)C1	·	-24%	14%	·
7	Cc1cccc(C(=O)N[C@H](C(=O)Nc2cc(S(=O)(=O)N3CCCCC3)ccc2C)C(C)C)c1	?	-8%	1%	14%
8	CC(=O)NC1=NN(c2ccccc2)C(=O)C1	5%	-21%	23%	4%
9	O=C(O)/C=C\C(=O)Nc1ccc(Oc2ccccc2)cc1	-3%	-5%	-5%	-4%
10	CCc1c(C)nc2c(C#N)c[nH]n2c1=O	2%	3%	1%	9%

nr	Marburg entry inh	RE007 growth inh	SARS PLpro yeast	Cruzain Triton
1	?	0%	-6%	-1.7%
2	3%	1%	-5%	0.4%
3	?	-12%	-1%	·
4	15%	-27%	-7%	-2.9%
5	-4%	3%	·	-0.8%
6	·	-7%	-2%	·
7	?	-6%	-13%	-4.8%
8	2%	-17%	3%	5.4%
9	11%	-3%	-17%	-1.2%
10	-27%	2%	3%	0.5%

(more compounds)
nr	smiles	LASV entry inh	2A StopGo	NS1 function inh	Cruzain noTriton
11	Cc1cccc2c(C(=O)O)c3c(nc12)CCCCC3	20%	-6%	2%	1%
12	COc1cc(CSc2ncc(CO)n2Cc2ccc(C)cc2)cc(OC)c1	6%[46.1 µM]	-4%	·	11%
13	O=Cc1cccn1-c1sc2c(c1C(=O)O)CCCC2	?	-20%	11%	4%
14	CCCc1oc2ccc(NS(=O)(=O)c3ccc(OC)cc3)cc2c1C(=O)OCC	1µM*	23%	·	25%
15	CC(C)(C)c1nnc(NC(=O)c2cccs2)s1	·	31%[activator]	-10%	·
16	O=C(CCNc1cccc(F)c1)c1cc2ccccc2o1	-20%[46.1 µM]	7%	·	·
17	Cc1cccc(CC2CC(=O)N(c3ccccc3)C2=O)c1 (stereo not given)	?	-8%	-4%	12%
18	CN(C)S(=O)(=O)N1CCC(c2ccc(F)cc2)C(COc2ccc3c(c2)OCO3)C1 (stereo not given)	?	-13%	8%	-5%
19	O=C(CSC(=S)N1CCCC1)N1CCN(S(=O)(=O)c2cccc(F)c2)CC1	6%	10%	·	·
20	Cc1cccc(C)c1NC(=O)CN(C)C(=O)c1ccccc1SCC(=O)N1CCCC1	0%	-9%	·	·

nr	Marburg entry inh	RE007 growth inh	SARS PLpro yeast	Cruzain Triton
11	38%	24%	4%	3.9%
12	·	·	·	-5.3%
13	?	21%	23%	-2.5%
14	·	·	·	1.5%
15	·	-16%	0%	·
16	-8%[46.1 µM]	4%	-4%	·
17	6%	-19%	6%	-2.1%
18	2.8µM*	41%	3%	-2.2%
19	-3%	22%	-1%	·
20	-30%	-13%	14µM*	·

Other entries follow:
nr	smiles	LASV entry inh	2A StopGo	NS1 function inh	Cruzain noTriton
21	O=C(c1ccccc1F)c1cn(CC(=O)N2CCCCC2)c2ccccc12	-8%	-4%	-5%	-7%
22	COc1ccc(C(=O)NNC(=O)CSc2nnnn2C)cc1	-7%	-3%	6%	·
23	COc1cccc(-c2cc(=O)c3cc(NC(=O)c4ccccc4)ccc3[nH]2)c1	?	-20%	13%	?
24	CCC(C)n1c(=O)c(C(=O)Nc2ccccc2S(N)(=O)=O)c(O)c2ccccc21 (stereo not given)	?	-18%	2%	-26%
25	COc1ccc(C(=O)N=c2sc3c(C)ccc(OC)c3n2C)cc1OC	·	44%[activator]	-1%	·
26	Cc1ccc2[nH]c(=O)c(N3CCOCC3)c(-c3ccccc3)c2c1	-2%	-16%	-12%	2%
27	Cn1nc(C(C)(C)C)c([N+](=O)[O-])c1C(=O)Nc1ccc(Br)cc1	·	?	?	·
28	CCc1nc2ccccc2n1CC(O)COc1ccc(NC(C)=O)cc1 (stereo not given)	-1%	-22%	0%	-14%
29	O=C(C/C=N/OCc1ccc(Cl)cc1)c1cnc(-c2ccccc2)s1	?	0%	7%	-30%

nr	Marburg entry inh	RE007 growth inh	SARS PLpro yeast	Cruzain Triton
21	-9%	-10%	1%	-6.1%
22	21%[46.1 µM]	24%	0%	·
23	-33%	5%	11%	-2.6%&1.1%
24	?	-4%	2%	-4.1%
25	·	-7%	1%	·
26	-2%	-9%	4%	-5.7%
27	·	-3%	0%	·
28	23%[46.1 µM]	-9%	7%	0.2%
29	-6%	14%	-10%	-3.6%

Some of the entries so far, with one line to a screen:
26	Cc1ccc2[nH]c(=O)c(N3CCOCC3)c(-c3ccccc3)c2c1
27	Cn1nc(C(C)(C)C)c([N+](=O)[O-])c1C(=O)Nc1ccc(Br)cc1

| Screen / compound no. | 26 | 27 |
| --- | --- | --- |
| LASV entry inh | -2% | · |
| 2A StopGo | -16% | ? |
| NS1 function inh | -12% | ? |
| Cruzain noTriton | 2% | · |
| Marburg entry inh | -2% | · |
| RE007 growth inh | -9% | -3% |
| SARS PLpro yeast | 4% | 0% |
| Cruzain Triton | -5.7% | · |

Among those listed so far, six contain a halogen:
nr	smiles	LASV entry inh	2A StopGo	NS1 function inh	Cruzain noTriton
16	O=C(CCNc1cccc(F)c1)c1cc2ccccc2o1	-20%[46.1 µM]	7%	·	·
18	CN(C)S(=O)(=O)N1CCC(c2ccc(F)cc2)C(COc2ccc3c(c2)OCO3)C1 (stereo not given)	?	-13%	8%	-5%
19	O=C(CSC(=S)N1CCCC1)N1CCN(S(=O)(=O)c2cccc(F)c2)CC1	6%	10%	·	·
21	O=C(c1ccccc1F)c1cn(CC(=O)N2CCCCC2)c2ccccc12	-8%	-4%	-5%	-7%
27	Cn1nc(C(C)(C)C)c([N+](=O)[O-])c1C(=O)Nc1ccc(Br)cc1	·	?	?	·
29	O=C(C/C=N/OCc1ccc(Cl)cc1)c1cnc(-c2ccccc2)s1	?	0%	7%	-30%

nr	Marburg entry inh	RE007 growth inh	SARS PLpro yeast	Cruzain Triton
16	-8%[46.1 µM]	4%	-4%	·
18	2.8µM*	41%	3%	-2.2%
19	-3%	22%	-1%	·
21	-9%	-10%	1%	-6.1%
27	·	-3%	0%	·
29	-6%	14%	-10%	-3.6%
